Screening data from PubChem.
Env fusion inh – blocks HIV Env-driven cell-cell fusion. HeLa-JRFL Env/CEM21 cell fusion, luciferase. inhibition, % at 12.3 µM. 360,000 compounds, 1.1% hits;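 active = mean replicate inhibition score of at least 50 and every replicate individually at or above 50; inconclusive = only one of the two criteria met; inactive = mean below 50 and not all replicates reaching 50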;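 also: 0% = plate neutral controls and 100% = maraviroc near 300 nM; one replicate is shown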
Rce1 inhib – yeast Ras-converting enzyme inhibition; Q03530; yeast membranes, quenched prenylated peptide cleavage fluorescence; calls only; 290,000 compounds, 0.27% hits;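 active = fall in fluorescence gain of 50% or more versus controls, with final raw signal at or below 3038400; inconclusive = same 50% fall but final raw signal above 3038400; inactive = fall in fluorescence gain under 50%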;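 also: plate controls were neutral control wells for no effect and wells lacking membranes for full effect; tested at 10 µM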
Target sequence (Q03530 whole entry, looked up): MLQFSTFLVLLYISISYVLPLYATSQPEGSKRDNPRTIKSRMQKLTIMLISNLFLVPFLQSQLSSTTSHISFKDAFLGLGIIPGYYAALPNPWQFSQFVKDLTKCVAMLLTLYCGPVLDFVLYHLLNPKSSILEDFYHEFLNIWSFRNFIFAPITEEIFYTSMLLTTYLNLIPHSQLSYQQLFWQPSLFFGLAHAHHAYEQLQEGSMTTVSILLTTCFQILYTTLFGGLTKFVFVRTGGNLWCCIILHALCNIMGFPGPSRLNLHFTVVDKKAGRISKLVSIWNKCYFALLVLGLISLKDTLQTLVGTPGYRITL
Yeast UUG start – modulators of start codon recognition fidelity in yeast; S. cerevisiae UUG-firefly luciferase reporter, luminescence/redox ratio; activity score, % at 18.7 µM; 350,000 compounds, 0.13% hits;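 active = replicate mean at a twofold rise or more, about +100% in these data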;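 also: firefly luciferase made from a UUG start codon reports start codon fidelity; reporter light over untreated wells divided by growth signal over untreated wells; some hits fall short of that in this replicate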
PABP FP inh – PABP-poly(A) binding inhibition. P11940. PABP-poly(A) RNA binding, fluorescence polarization. inhibition, % at 35 µM. 290,000 compounds, 1% hits;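 active = 50% or more with normal probe brightness, or confirmed in later tests; inconclusive = above 50% with abnormal brightness, or retests that disagree; inactive = below 50% or failed in later tests; about a fifth of its hits are not listed in these tables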;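 also: calls also rest on retests at 20 µM and on dose response follow-up; controls were probe without protein and protein plus probe with vehicle; some compounds called inactive have numbers as strong as hits; many hits fall short of the cut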
Target sequence (P11940 whole entry, looked up): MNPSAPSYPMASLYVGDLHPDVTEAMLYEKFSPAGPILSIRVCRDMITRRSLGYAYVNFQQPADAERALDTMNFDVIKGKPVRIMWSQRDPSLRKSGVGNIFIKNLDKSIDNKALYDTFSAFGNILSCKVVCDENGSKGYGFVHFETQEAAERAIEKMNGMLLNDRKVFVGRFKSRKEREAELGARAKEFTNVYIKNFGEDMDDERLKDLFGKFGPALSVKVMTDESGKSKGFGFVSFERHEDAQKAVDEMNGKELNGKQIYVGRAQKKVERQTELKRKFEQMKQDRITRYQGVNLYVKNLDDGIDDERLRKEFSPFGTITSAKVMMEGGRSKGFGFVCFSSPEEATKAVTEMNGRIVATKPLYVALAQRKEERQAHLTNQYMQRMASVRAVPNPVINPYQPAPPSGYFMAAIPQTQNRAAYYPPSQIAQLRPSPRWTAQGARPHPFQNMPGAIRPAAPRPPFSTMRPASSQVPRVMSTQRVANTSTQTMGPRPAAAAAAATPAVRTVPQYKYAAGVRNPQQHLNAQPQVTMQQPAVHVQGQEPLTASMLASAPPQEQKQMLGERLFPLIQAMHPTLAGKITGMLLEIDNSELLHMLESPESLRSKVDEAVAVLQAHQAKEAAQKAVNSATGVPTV
CSC inhib – cancer stem cell inhibition; cancer stem cell-like cells viability, luminescence; inhibition, % at 7.5 µM; 300,000 compounds, 1.1% hits; AID 2717;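 active = mean at 75% or more and at least half the replicates too; inconclusive = mean and replicates disagree; tested in HMLE shEcad cells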;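 also: 0% = median of negative and 100% = median of positive control wells; the first replicate is given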
MT1-MMP act inh – blocks activation of human MT1-MMP | HT1080 RFP-PRO-GFP cells, GFP/RFP ratio fluorescence, overnight; percent of plate control window, DMSO zero | GFP/RFP ratio change, % at 20 µM | 360,000 compounds, 0.061% hits;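 active = GFP/RFP ratio change of at least 30% with cell ATP level not reduced by more than half and red fluorescence within 50% of control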; also: strong numbers were not always called active
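Read-out: GFP/RFP fluorescence ratio; Test system: RFP-PRO-GFP reporter HT1080 cells; Compound dosing: single-point 20 µM compound, 1% DMSO; Times: overnight compound exposure at 37 °C.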
eIF4H inh – inhibitors of RNA binding by human eIF4H. Q15056. eIF4H fluorescence polarization binding assay. inhibition, % at 35 µM. 290,000 compounds, 0.94% hits. AID 2012;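 active = 50% or more with normal probe brightness, or confirmed in later tests; inconclusive = above 50% with abnormal brightness, or retests that disagree; inactive = below 50% or failed in later tests; about a fifth of its hits are not listed in these tables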;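 also: calls also rest on retests at 20 µM and on dose response follow-up; 0% = protein and probe with vehicle and 100% = probe without protein; strong numbers were not always called active; many hits fall short of the cut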
eIF4H inh retest – also measured in eIF4H inh; calls as there; inhibition, %; compound at 20 µM; confirmation average;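 mean of two retest wells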
PABP FP inh retest – also measured in PABP FP inh; calls as there; inhibition, %; compound at 20 µM; confirmation repeats;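 mean of two retest wells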
MT1-MMP act inh RFP – second read-out of MT1-MMP act inh, no call of its own (marks repeat the call); RFP signal change, %; measured here: RFP expression control read;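 0 = vehicle wells; hits needed this value within 50% of zero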
An asterisk follows results filed as active; i = inactive; ? = inconclusive; nt = not tested or not shown; & = joins results of further samples.

SMILES	Env fusion inh	Rce1 inhib	Yeast UUG start	PABP FP inh	CSC inhib	MT1-MMP act inh	MT1-MMP act inh RFP	eIF4H inh	others
Clc1ccc(CN2C3=NCCCN3c3ccccc32)cc1Cl	-14	i	-4	-12	nt	-3	-2	-4
CCC1(CC)C(=O)NC(=O)NC1=Nc1ccccc1	29	i	-55	14	8	0	2	0
CCCCc1c(C)nn(-c2nnc3c4ccccc4n(C)c3n2)c1C	nt	i	-13	-7	-10	-3	-7	-5
CN(CC(=O)Nc1cc(Cl)ccc1-n1cncn1)Cc1ccccc1N1CCOCC1	18	nt	9	nt	nt	2	-2	nt
CCN(CC)S(=O)(=O)c1ccc(OC)c(NC(=O)c2ccc(-n3cncn3)c([N+](=O)[O-])c2)c1	nt	i	-20	nt	-11	0	0	nt
CC(NC(=O)COC(=O)c1ccc2c(c1)S(=O)(=O)N=C1CCCCCN12)C12CC3CC(CC(C3)C1)C2 (stereo unspecified)	-7	i	-16	-6	11	4	4	-4
Cc1nn(C)c(Oc2cccc(C(F)(F)F)c2)c1C#N	-81	i	-14	-10	4	0	4	-4
COc1cc(C#N)ccc1OCC(=O)Nc1cccc(S(=O)(=O)N(C)c2ccccc2)c1	8	nt	-9	nt	nt	0	-3	nt
CCC(CC)NC(=O)CCCSc1nc2ccccc2[nH]1	22	i	nt	27	-9	3	1	4
CCN(CC)S(=O)(=O)c1ccc(S(=O)(=O)N(CC(=O)Nc2ccccc2)Cc2ccco2)cc1	31	i	3	-5	-7	8	-4	36
CCN(CC)S(=O)(=O)c1ccc(OC)c(NC(=O)/C=C/c2ccco2)c1	-9	i	-1	1	-14	-5	-1	11
COc1ccc(NC(=O)c2cn(CCC#N)nc2-c2cccs2)cc1	6	i	nt	-2	-5	1	5	1
COc1cc(C(O)c2nc(-c3ccccc3C)cs2)ccc1F (stereo unspecified)	12	nt	-1	nt	nt	-3	-11	nt
CC(=O)Nc1ccc(S(=O)(=O)N(C)CC(=O)Nc2ccc(Br)cc2F)cc1	8	i	nt	nt	-16	7	-1	nt
CC(OC(=O)/C=C/c1ccccc1)C(=O)Nc1ccc2c(c1)OCCO2 (stereo unspecified)	nt	nt	-23	nt	6	1	3	nt
Cc1ccc(C)c2c1c1ccccc1n2C	-2	i	-13	11	-7	3	1	-2
CCOc1ccc(S(=O)(=O)N2CCN(C(=O)c3ccc(-n4cncn4)c([N+](=O)[O-])c3)CC2)cc1	-2	i	-9	nt	-6	2	-7	nt
CCN1CCN(C(=O)c2cc3c(=O)n(C)c4ccccc4c3n2C)CC1	-47	i	-7	-5	-3	1	1	-6
O=C(COC(=O)C12CC3CC(CC(O)(C3)C1)C2)Nc1ccc(OC(F)F)cc1	-16	nt	0	nt	nt	2	0	nt
CCOc1ccc(-c2nnc(N)o2)cc1	nt	i	-22	-7	3	1	5	-13
O=C(CNC(=O)c1cccs1)NCC(=O)OCc1ccc(Cl)cc1	nt	i	-9	-1	-9	0	1	-1
Cc1ccc(NC(=O)COC(=O)COc2ccc(Cl)cc2)c([N+](=O)[O-])c1	-25	i	nt	15	18	-2	5	-18
N#Cc1ccc(C23CC4(C2)[C@H](CN(Cc2ccc(-c5ccccc5)cc2)[C@@H]4c2ccccc2)C3c2ccc(Cl)nc2)cc1 (stereo partly specified)	-29	i	-5	-14	10	-6	-6	-3
N#Cc1cn(CC(=O)NCCc2c[nH]c3ccccc23)c2ccccc12	-112	i	nt	-5	-8	2	-2	-6
CC1=NN(C(=O)CCc2ccccc2O)C(O)(C(F)(F)F)C1 (stereo unspecified)	13	i	7	-3	2	2	3	2

Structural class, those above with an NH in an aromatic ring
SMILES	Env fusion inh	Rce1 inhib	Yeast UUG start	PABP FP inh	CSC inhib	MT1-MMP act inh	MT1-MMP act inh RFP	eIF4H inh	others
CCC(CC)NC(=O)CCCSc1nc2ccccc2[nH]1	22	i	nt	27	-9	3	1	4
N#Cc1cn(CC(=O)NCCc2c[nH]c3ccccc23)c2ccccc12	-112	i	nt	-5	-8	2	-2	-6

(more compounds)
SMILES	Env fusion inh	Rce1 inhib	Yeast UUG start	PABP FP inh	CSC inhib	MT1-MMP act inh	MT1-MMP act inh RFP	eIF4H inh	others
CC(C(=O)Nc1nc(-c2ccc(F)cc2)cs1)N1C(=O)C2CC=CCC2C1=O (stereo unspecified)	-4	nt	-8	nt	7	4	-8	nt
CCOc1ccc(NC(=O)C2CC(=O)N(c3ccccc3F)C2)cc1 (stereo unspecified)	-3	i	nt	4	0	3	3	0
CCn1c2ccccc2c2nnc(SCc3ccccc3)nc21	4	i	-7	-24	56	-6	-7	-4
CCCCn1nc2cc(C(=O)NCc3cc(C(F)(F)F)cc(C(F)(F)F)c3)ccc2c1OC	63*	i	10	3	-5	1	-3	-1
O=C(Nc1ccc(C(=O)N2CCCC2)cc1)C1CCCCC1	-1	nt	-2	nt	nt	0	3	nt
Cc1nn(S(=O)(=O)c2ccccc2)c(C)c1S(=O)(=O)N1CCC(C)CC1	-5	i	-20	1	-2	1	4	-7
Cc1cc(C(C)(C)C)cc(S(=O)(=O)NCC(=O)O)c1C	nt	i	-16	4	-2	0	-2	2
O=C(O)c1cc(-c2ccco2)nn1-c1ccc(Cl)cc1	-9	i	nt	-6	nt	-6	4	80	eIF4H inh retest=-5;PABP FP inh retest=2
CN1CCN(C(CNC(=O)C(=O)Nc2ccc3c(c2)OCCO3)c2ccc(F)cc2)CC1 (stereo unspecified)	5	i	6	nt	-7	-5	4	nt
C[C@H](CO)N1C[C@H](C)[C@@H](CN(C)C(=O)NC2CCCCC2)Oc2c(NC(=O)Nc3ccc4c(c3)OCO4)cccc2C1=O	-137	nt	1&11	nt	6	2	4	nt
COc1cc(CC(C#N)(CO)c2nc3ccccc3[nH]2)ccc1OC(F)F (stereo unspecified)	nt	i	-11	-18	-14	-7	-5	-8
CCn1ncc(S(=O)(=O)NCc2ccco2)c1C	-3	i	-9	4	-3	0	6	2
COC(=O)CSc1nc2c(c(=O)[nH]c(=O)n2C)n1CCC(C)C	nt	i	-8	-16	-1	1	0	6
CSc1ccc(Cl)c(C(=O)N2CCOc3ccccc32)c1	-2	i	-15	-2	-7	0	-7	-12
Cc1ccc(C(=O)NC2CCN(C(=O)Nc3ccccc3Cl)CC2)cc1	9	i	-4	8	-9	2	5	11
CC1(C)CC(=O)C(C(C2=C(O)CC(C)(C)CC2=O)c2ccco2)C(=O)C1 (stereo unspecified)	-52	i	-6	2	11	-3	11	7
C[C@H]1CN([C@@H](C)CO)C(=O)CCCn2nncc2CO[C@@H]1CN(C)C(=O)NC1CCCCC1	-4	nt	-18&-13	nt	nt	0	2	nt
Cc1cc(C)nc(Nc2n[nH]c(-c3ccc(N)cc3)n2)n1	-113	nt	-17	-7	-8	3	-1	8
CCOCCCNC(=O)c1c(N)n(-c2ccc3c(c2)OCO3)c2nc3ccccc3nc12	10	i	nt	14	nt	4	5	10
Cc1cc(C)c(NC(=O)c2ccc[n+](Cc3ccc([N+](=O)[O-])cc3)c2)c(C)c1	-24	i	nt	-2	5	5	4	-3
CCCN1C(=O)C2(SC(NC(C)=O)=NN2C(C)=O)c2cc(C)ccc21 (stereo unspecified)	0	i	nt	-7	-8	5	0	-2
O=C(CSc1nncn1-c1ccccc1)c1c[nH]c2ccccc12	-10	i	-9	0	12	-7	-4	-8
CNS(=O)(=O)c1cccc(C(=O)OCC(=O)/C=C2/N(C)c3ccccc3C2(C)C)c1	9	i	nt	15	nt	8	1	2
COc1ccccc1N=NC1=C(O)CC(C)(C)CC1=O	5	nt	nt	-2	9	1	3	-7
Cc1ccc(-c2nnc(SCC(=O)N/N=C/c3ccc(C)s3)n2-c2ccc(C)cc2)cc1	?	i	nt	-10	13	4	-3	-3

Next compounds follow.
SMILES	Env fusion inh	Rce1 inhib	Yeast UUG start	PABP FP inh	CSC inhib	MT1-MMP act inh	MT1-MMP act inh RFP	eIF4H inh	others
OC(CNCC1CCCO1)Cn1c2ccc(Cl)cc2c2cc(Cl)ccc21 (stereo unspecified)	-2	i	-10	-6	111*	-2	-8	-11
O=c1[nH][nH]c(-c2ccccc2O)c1C(C[N+](=O)[O-])c1ccccc1 (stereo unspecified)	6	i	nt	2	0	3	1	-13
Cc1ccc2c(CC(=O)N3CCN(S(=O)(=O)c4ccccc4)CC3)coc2c1	14	nt	-15	nt	nt	-5	-2	nt
COc1ccccc1CNC(=O)C(NC(=O)c1ccccc1C)C(C)C (stereo unspecified)	-4	i	nt	-6	-21	0	3	2
COc1ccc(OC)c(NC(=O)C2CC2c2ccccc2)c1 (stereo unspecified)	-7	i	-20	10	2	-2	-1	13
COc1ccc(C(=O)C(C)OC(=O)c2cccc(S(=O)(=O)Nc3c(C)n(C)n(-c4ccccc4)c3=O)c2)cc1 (stereo unspecified)	nt	nt	12	nt	-12	-1	-3	nt
COc1ccc2nc(SCC(=O)Nc3ccc4c(c3)OCCO4)[nH]c2c1	-49	i	-37	3	-20	3	-2	-3
C=CCOc1ccc(C=Nc2ccc(OC)cc2)c(O)c1	-4	i	nt	4	28	2	-3	4
Cc1ccc(S(=O)(=O)N[C@H](C(=O)OCn2nnc3ccccc3c2=O)C(C)C)cc1	nt	i	25	-2	-22	3	-12	-2
Cc1c(CNCCc2ccc(Cl)cc2)c(C(=O)O)c(C)n1Cc1ccccc1	14	i	nt	4	-10	-1	1	1
COC(=O)c1sccc1NC(=O)c1ccncc1	-53	i	-11	-8	-3	2	1	8
Cc1ccc(-c2cc(C(=O)N3CCCC3)no2)cc1	-67	i	-61	6	7	4	2	-10
CCN(C(=O)COC(=O)c1ccc(N2C(=O)c3ccccc3C2=O)cc1)C1CCS(=O)(=O)C1 (stereo unspecified)	14	i	nt	45	-1	4	6	-13
CCOc1ccc(S(=O)(=O)NCCC(=O)Nc2ccncc2)cc1	nt	i	-16	nt	-11	1	-7	nt
COc1ccc(C(=O)NC(=S)Nc2nc(-c3ccc(OC)c(Br)c3)cs2)cc1Br	3	i	11	8	27	-8	-6	-13
CC(=O)c1cccc(NC(=O)NCCS(C)=O)c1 (stereo unspecified)	nt	i	-1	6	10	3	4	-8
COc1cc(NC(=O)c2ccc(-c3csc(C)n3)cc2)c(OC)cc1Cl	-17	i	-13	8	41	-3	-4	-8
CC(=O)Nc1ccc(OCC(O)CN2CCN(Cc3ccccc3)CC2)cc1 (stereo unspecified)	nt	i	-5	8	-8	2	7	3
O=C(NC(=S)N1CCCCC1CO)C12CC3CC(CC(C3)C1)C2 (stereo unspecified)	6	i	nt	-6	-6	-2	0	-7
COc1ccc(-c2nnc(-c3ccc(N(C)C)cc3)o2)cc1	-56	i	-9	-7	-18	1	-2	-3
CCNc1nc(SC(C)C(=O)Nc2ccccc2)nc(N(C)C)n1 (stereo unspecified)	14	i	1	-11	17	-1	-3	-9
O=C(NC1(C(F)(F)F)NC(=O)N(Cc2cccnc2)C1=O)c1cccs1 (stereo unspecified)	nt	i	-6	9	-1	-1	-1	1
O=C(Cc1ccccc1Cl)Nc1cccc(S(=O)(=O)N2CCCCCC2)c1	31	nt	-13	nt	35	1	-6	nt
Cc1cc(-c2ccccc2)c(C#N)c(=S)[nH]1	nt	i	-24	-2	-25	-2	3	-9
